Compound activity: PubChem, ICCB-Longwood Screening Facility, Harvard Medical School
GIV Gai3 FP = inhibitors of GIV GBA-motif binding to rat Galpha-i3. hit rate 0.42% among 210,000. P08753. AID 1224905. Galpha-i3/FITC-GIV peptide fluorescence polarization, 90 min; hits give low values; scaled: aluminum fluoride 0%, vehicle 100%. percent of control (FP), % (test concentration not listed);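 active = replicate mean at 85% of control or lower, very high polarization wells dropped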;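 note: wells of about 15 µL received 100 nL stock; the first replicate is given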
Target sequence (P08753 whole entry, looked up): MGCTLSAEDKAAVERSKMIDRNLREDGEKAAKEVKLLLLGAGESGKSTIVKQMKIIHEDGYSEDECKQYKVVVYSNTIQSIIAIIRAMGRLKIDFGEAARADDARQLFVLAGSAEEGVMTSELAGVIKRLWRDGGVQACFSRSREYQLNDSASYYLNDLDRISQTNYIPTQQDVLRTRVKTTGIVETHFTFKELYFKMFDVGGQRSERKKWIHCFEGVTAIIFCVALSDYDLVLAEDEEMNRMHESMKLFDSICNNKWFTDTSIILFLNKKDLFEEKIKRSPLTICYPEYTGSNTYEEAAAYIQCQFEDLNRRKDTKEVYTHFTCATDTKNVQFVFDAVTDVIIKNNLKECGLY
Sa growth inh = S. aureus growth inhibition | S. aureus RN4220 growth, OD600, 20 h, 42 °C; hits give low values | relative growth, % (test concentration not listed) | hit rate 0.53% among 170,000;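 active = growth at 42 °C up to 50% and 20 or more points under that at 30 °C, or under 10% at both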;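 note: 300 nL library stock went into each well; scaled to the means of positive and negative controls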
HCMV NEC inh = disrupts HCMV UL50-UL53 complex binding | HTRF UL50-UL53 interaction, normalized percent inhibition | inhibition, % (test concentration not listed) | hit rate 0.15% among 190,000;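 active = both replicates at 50% or more, plus weaker picks with an unusually low signal ratio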;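 note: stock transfer was 100 nL into about 20 µL; 0% = negative control wells and 100% = wells with untagged competitor protein; inactives centre near -12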
Sa growth inh second temp = also measured in Sa growth inh; calls as there; relative growth, %; measured here: growth at 30 °C;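 optical density after 20 h as mean of two plates; 100% = untreated growth and lower means inhibition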
* marks the source's active call; other numbers are inactive results; nt = not tested or not shown; & = joins results of further samples.

SMILES	GIV Gai3 FP	Sa growth inh	Sa growth inh second temp	HCMV NEC inh
CCC12CN3CC(CC)(CN(C1)C3c1ccccc1)C2O (stereo not given)	107.2	105.8	99.3	-3.7
COc1ccc(-c2noc(CCC(=O)O)n2)cc1	96.2	105.8	88.8	-10.1
O=C(c1ccccc1)N1CCCSc2ccccc21	94.1	98.1	102.6	-28.0
Cc1ccccc1NCC(=O)NN	nt	86.7	90.7	2.6
CC(C)(CC(=O)O)CC(=O)NC1CCN(Cc2c(F)cccc2Cl)CC1	109.9	112.3	96.4	11.6
CC(C)OCCCNC(=O)CCc1nc2sc3c(c2c(=O)[nH]1)CCCCC3	100.0	nt	nt	-25.8
COC(=O)/C=C1\Nc2ccccc2SC1=O	103.2	84.7	57.1	-17.5
CCOc1ccc(NC(=O)C2CCN(S(=O)(=O)c3cnc[nH]3)CC2)cc1	98.7	89.3	88.5	nt
CCOC(=O)Cc1csc(-c2ccccc2F)n1	103.6	79.4	97.0	-23.5
O=C(NCC1CCCO1)c1ccc(CSc2nc3cccnc3n2Cc2ccccc2)cc1 (stereo not given)	104.0	nt	nt	-35.1
Cc1oc2ncn(CC(C)C)c(=O)c2c1C(=O)N1CCN(c2cccc(C(F)(F)F)c2)CC1	106.6	116.3	86.9	nt
CCOC(=O)c1c(C)[nH]c(NC(=O)N(CC)CC)c1C	101.5	nt	nt	-28.9

Another view of some results above.
compound: CCC12CN3CC(CC)(CN(C1)C3c1ccccc1)C2O (stereo not given)
  GIV Gai3 FP = 107.2 | Sa growth inh = 105.8 | Sa growth inh second temp = 99.3 | HCMV NEC inh = -3.7
compound: COc1ccc(-c2noc(CCC(=O)O)n2)cc1
  GIV Gai3 FP = 96.2 | Sa growth inh = 105.8 | Sa growth inh second temp = 88.8 | HCMV NEC inh = -10.1

(cont.)
SMILES	GIV Gai3 FP	Sa growth inh	Sa growth inh second temp	HCMV NEC inh
O=C(/C=C/c1cn(CC(O)CN2CCCCCC2)c2ccccc12)c1ccc(Br)cc1 (stereo not given)	166.5	138.7	53.0	-22.9
O=S(=O)(c1ccc(Br)cc1)c1nnn2c1nc(N1CCOCC1)c1sccc12	102.3	112.5	73.3	nt
FC(F)(F)c1cccc(OCc2ccc(-c3ncns3)cc2)c1	104.1	84.1	90.0	-56.0
Cc1cccc(N(Cc2ccccc2)C(=O)COc2ccc(-c3nnco3)cc2)c1	nt	64.1	75.2	-29.3
CCOC(=O)CN1CC23C=CC(O2)C(C(=O)N2CCN(c4ccc(F)cc4)CC2)C3C1=O (stereo not given)	99.0	112.8	93.7	-4.2
Cc1cc(C)cc(N2C(=O)N(Cc3cc(=O)n4ccccc4n3)c3ccccc3S2(=O)=O)c1	106.7	95.0	104.0	nt
COc1ccc(/C=C/c2nc3ccccc3c(=O)n2-c2cccc(C(F)(F)F)c2)cc1	102.7	111.5	91.8	nt
Cc1cccc(N(CC(=O)NCc2ccccc2)S(C)(=O)=O)c1C	97.9	90.2	88.1	-21.9
COc1ccc(-c2cc(C(=O)N3CCN(S(=O)(=O)c4ccc(C)cc4C)CC3)[nH]n2)cc1	105.5	nt	nt	-8.0
N/N=C1\CCCc2c1[nH]c1ccc(F)cc21	100.8	98.4	105.7	9.3
COc1ccc(-n2c(C)cc(C(=O)CN3CCCCC3)c2C)cc1	105.3	nt	nt	-20.1
CCOC(=O)N1CCC(=C(C#N)C(=O)Nc2cc(OC)ccc2OC)CC1	94.2	93.1	88.2	nt
CCC(=O)c1ccc(OCC(=O)NC2CCCC2)cc1	nt	100.1	111.0	-2.8
COc1ccc(/C=C(/CC(=O)O)C(=O)O)cc1	100.3	109.9	101.8	-0.1
C=CCOC(=O)C1CC=CCC1C(=O)Oc1ccc(F)cc1F (stereo not given)	99.0	100.9	85.0	-14.9
CS/C(Nc1ccc(F)cc1)=C(/C#N)C(=O)c1ccco1	94.6	87.1	81.5	-19.1
Nc1nc(N2CCOCC2)ncc1S(=O)(=O)c1ccc(C(F)(F)F)cn1	104.1	95.9	89.6	-15.5
CCOC(=O)c1cc(NC(=O)Nc2ccc(C)cc2C)c(C)nc1C	100.3	127.2	62.2	nt
CCC1CCCCN1S(=O)(=O)c1ccc2c(c1)CCN2C(C)=O (stereo not given)	94.5	100.2	88.4	-10.6
COc1ccccc1NC(=O)CSC1=Nc2ccccc2C2=NC(CC(=O)NCc3ccccc3)C(=O)N12 (stereo not given)	101.0	58.1	66.1	nt
Nc1c(C(=O)Nc2ccc(Br)cc2)sc2nc(-c3ccncc3)ccc12	124.3	105.4	96.4	4.8
COc1cccc2cc(C(=O)c3ccccc3)oc12	101.3	nt	nt	-53.2
O=C(CSc1nnc(-c2ccncc2)o1)N1CCCCC1	101.7	nt	nt	-30.6
CCS(=O)(=O)N1CCC(C(=O)N2CCN(c3ccccc3)CC2)CC1	102.3	95.1	83.4	-29.6
Cc1cc(S(=O)(=O)N2CCOCC2)ccc1OCC(=O)N1CCOCC1	102.9	84.5	78.2	-27.7
CCCCN(C)CCNC(=O)Cn1ncc2c([nH]c3ccccc32)c1=O	105.5	115.7	100.5	nt
O=C(CCNc1ccc(Cl)c(C(F)(F)F)c1)c1ccccc1	nt	80.3	87.9	1.9
Cc1ccc(C(CCN)c2ccco2)cc1 (stereo not given)	109.3	102.5	102.1	4.9
O=C(c1c(F)cccc1F)N1CC(OCc2ccc(F)cc2)C1	101.7	nt	nt	-8.7
OCC(O)C(O)C(O)c1cnn(-c2ccccc2)n1 (stereo not given)	98.6	123.5	92.3	-11.5
CN(C)C1c2cccc3cccc(c23)C1NS(C)(=O)=O (stereo not given)	105.6	103.8	96.9	-19.3
Cc1ccsc1/C=N/n1cnc2sc(C)c(C)c2c1=O	nt	95.3	97.4	-3.3
Nc1nc2c(nc(SCc3ccccc3Br)n2C2OC(CO)C(O)C2O)c(=O)[nH]1 (stereo not given)	111.9	110.0	86.6	2.0
O=C(CN1C(=O)c2ccccc2Sc2ncccc21)Nc1cccc(C(F)(F)F)c1	101.0	116.6	81.2	nt
CCCc1cc(C(=O)Cc2ccccn2)c(O)cc1O	nt	113.2	102.0	17.0
CNC(=S)NC(=O)c1ccccc1	nt	83.4	84.6	-25.1
Cc1ccc(Sc2cnc(N)nc2C)cc1	102.5	nt	nt	-15.4
O=C(Nc1cccc(-c2nnco2)c1)c1ccc(C(F)(F)F)cc1	105.2	98.0	87.4	-14.6
CC(C)(C)C(=O)Cn1c(=O)n(-c2ccccc2)c(=O)c2c3c(sc21)CCC3	98.3	102.7	89.3	-1.0
Cc1ccc(CNC(=O)c2ccc(CS(=O)(=O)Cc3ccc(C)cc3)o2)cc1	102.2	120.6	98.1	nt
Cc1oc2c(C)c3oc(=O)c4c(c3cc2c1-c1ccccc1)CCCC4	96.5	98.2	85.3	nt
Cc1ccc(-c2cc(OCC(=O)N3CCOc4ccc(C)cc43)c3ccccc3n2)cc1	106.7	nt	nt	-37.9
CC(=O)Nc1ccc2nc(NC(=O)c3ccc(S(=O)(=O)N4CCc5ccccc54)cc3)sc2c1	104.6	nt	nt	-29.0
COc1cc2c(cc1OC)C1C(C)C(=O)C3=C(CSCC3=O)N1CC2 (stereo not given)	nt	83.4	88.7	-6.6
CCOC(=O)C1C(=O)C=C(c2ccc(NS(C)(=O)=O)cc2)CC1c1ccco1 (stereo not given)	109.2	108.7	64.8	-57.0
NC(=O)c1cc(-c2ccco2)nc2ccccc12	102.7	103.1	88.7	-19.1
COc1ccc(-c2cc(C(C)=O)c(C)n2CCC(=O)Nc2ccc(C)cc2Cl)cc1	108.2	101.4	98.2	nt
CCCOc1ccc(-c2nc(SCC(N)=O)[nH]c(=O)c2C#N)cc1OC	102.9	98.5	89.8	-20.7
CCCCn1c(=O)c(-[n+]2ccccc2)c([O-])c2ccccc21	102.8	84.1	81.8	nt
CCC(NCC(O)Cn1c2ccccc2c2ccccc21)C(=O)O (stereo not given)	93.0	111.7	96.9	nt
CC(=O)c1ccc(NC(=O)Cn2cnc([N+](=O)[O-])n2)cc1	101.8	nt	nt	-66.5
CC(=O)N(C)C1=C(O)c2ccccc2C(=O)C1=O	101.4	98.3	92.9	-173.5
CCc1ccc(-c2cn3c(n2)sc2cc(C(=O)NC4CCCCCC4)ccc23)cc1	112.2	114.2	90.2	nt
O=C1Nc2ccccc2N(O)N1c1cc(-c2ccccc2Cl)no1	103.4	104.3	87.1	nt
CC(Sc1nc(N)cc(N)n1)C(=O)O (stereo not given)	nt	93.1	80.5	-12.6
CN(C(=O)Cn1nc(C(F)(F)F)c2c1CCCC2)c1ccccc1	97.4	94.1	87.2	nt
COc1cc(NC(=O)c2cc(C)oc2C)cc(OC)c1OC	97.4	96.7	108.0	4.1
O=c1c2oc3ccccc3c2[nH]c(=S)n1-c1ccccc1	106.2	106.3	73.5	nt
COC(=O)c1cc(COC(=O)c2ccccc2Sc2ccccc2C#N)oc1C	nt	79.5	94.9	-11.4
CCCC(NC(=O)c1ccccc1)c1nc2ccccc2n1Cc1ccc(C(=O)OC)o1 (stereo not given)	nt	85.3	93.0	-6.9

One compound at a time, as listed above:
Profile of CCc1ccc(-c2cn3c(n2)sc2cc(C(=O)NC4CCCCCC4)ccc23)cc1 : GIV Gai3 FP: 112.2; Sa growth inh: 114.2; Sa growth inh second temp: 90.2; HCMV NEC inh: nt
Profile of CC(=O)c1ccc(NC(=O)Cn2cnc([N+](=O)[O-])n2)cc1 : GIV Gai3 FP: 101.8; Sa growth inh: nt; Sa growth inh second temp: nt; HCMV NEC inh: -66.5
Profile of CCC(NCC(O)Cn1c2ccccc2c2ccccc21)C(=O)O (stereo not given) : GIV Gai3 FP: 93.0; Sa growth inh: 111.7; Sa growth inh second temp: 96.9; HCMV NEC inh: nt

Further records.
SMILES	GIV Gai3 FP	Sa growth inh	Sa growth inh second temp	HCMV NEC inh
S=C1Nc2ccccc2CS1	nt	88.5	91.1	-5.0
Cc1cc(C)c(-c2cc(-c3ccccc3Cl)n[nH]2)c(O)c1	102.4	116.0	94.0	-7.7
c1ccc(N2CCN(C3CCc4ccccc4C3)CC2)cc1 (stereo not given)	98.3	101.8	100.0	-17.5
CCC(Sc1nc2cc3c(cc2c(=O)n1CCCCCC(=O)NCc1ccc2c(c1)OCO2)OCO3)C(=O)NCCCOC (stereo not given)	107.2	105.6	76.9	nt
CCOC(=O)c1cccc(C(=O)NC2=NN(c3ccccc3)C(=O)C2)n1	100.9	nt	nt	-1.9
COC(=O)Cc1nc(-c2ccc(F)cc2)sc1C	93.3	83.2	84.3	-52.6
O=C(NC1CCCCC1)C1CCN(S(=O)(=O)c2cccc3cccnc23)CC1	104.1	nt	nt	-7.1
CCCCOC(=O)COc1cc(O)c2c(=O)cc(-c3ccccc3)oc2c1	100.9	nt	nt	-5.5
O=S(=O)(c1ccc(C2Nc3ccc(Cl)cc3C3C=CCC32)cc1)N1CCOCC1 (stereo not given)	102.9	nt	nt	-15.0
O=C(Nc1ccccc1)n1nccc1-c1sccc1Cl	97.3	nt	nt	-14.3
O=C(NN1C(=O)CSC1=S)c1ccccc1	99.0	84.5	77.2	nt
Cc1ccc(NC(=O)N2CCN3CCCCC3C2)c(C)c1 (stereo not given)	97.0	nt	nt	7.7
CN(Cc1ccc(Cl)s1)Cn1c(=O)oc2ccccc21	nt	78.8	93.3	-37.9
CC12CCC(=O)N1C(C(=O)O)Cc1c2[nH]c2ccccc12 (stereo not given)	nt	100.4	87.2	7.9
Cc1ccc2c(c1)N(CC(=O)N1CCOCC1)C(=O)c1cccnc1O2	101.5	104.4	89.3	nt
CCN(CC)c1ccc2cc(-c3nnc(-c4ccccc4)o3)c(=O)oc2c1	218.9	nt	nt	5.6
CCCn1c(=O)c2sccc2n2c(CCCC(=O)Nc3ccccc3)nnc12	103.2	96.1	90.6	-28.5
CCOC(=O)c1cn(Cc2cccc(Cl)c2)c2cc(C)nn2c1=O	108.9	106.8	85.5	-44.9
CCOc1ccc(C(=O)CCc2nc3ccccc3s2)cc1	nt	89.1	99.9	-10.8
Cn1c(O)c(C=Nc2cccc(CO)c2)c2ccccc21	102.7	98.2	59.3	nt
CCOC(=O)c1sc2nc(C)cc(C)c2c1NC(=O)Nc1ccc(Cl)cc1	104.0	97.0	95.9	-22.1
O=C(O)C1CC=CCC1C(=O)N1CCN(C/C=C/c2ccccc2)CC1 (stereo not given)	100.8	106.1	86.3	nt
COc1cc(C2NC(=O)N(C)C3=C2C(=O)N(c2ccccc2)C3)ccc1O (stereo not given)	108.3	100.7	81.8	-43.0
CCNc1nc(NC(C)(C)C)nc(Oc2ccc(=O)n(C)n2)n1	103.8	90.1	93.2	-8.1
CCOc1ccc(NC(=O)c2cc(=O)[nH]c3ccccc23)cc1	nt	126.5&93.8	78.6&86.4	-19.3&-14.3
Cc1nn(-c2ccccc2)c2c1CN(C(=O)Nc1ccc3c(c1)OCCO3)C(c1ccccc1)c1cccn1-2 (stereo not given)	102.8	nt	nt	4.1
COc1ccc(C(=O)Nc2ccc(N3CCOCC3)c(C(F)(F)F)c2)cc1OC	113.2	94.5	99.5	-1.7
CC1CC(=O)C2=C(C1)Nc1ncnn1C2c1cc(F)cc(F)c1 (stereo not given)	97.8	70.9	91.5	16.2
CCOC(=O)C1CCN(c2cc3c(cc2NC(=O)NC)n(C)c(=O)n3C)CC1	102.4	nt	nt	-15.7
